Compound activity from PubChem.
PrP 5UTR inh: suppresses PrP 5' UTR mRNA reporter expression; AID 488862; inhibition, % (no concentration beside the values); cell-based PrP 5' UTR mRNA reporter, plate reader; actives 0.35% (n = 340,000);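 active means every replicate at 50% or more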;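 further: 0 = median of the neutral control wells; tested in H4 reporter cells; numbers are from one replicate; inactives centre near -14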
Autofluor counter: counter-screen for toxin protease inhibitors: compound fluorescence. compound autofluorescence counterscreen, microsphere flow cytometry; hits give high values. fluorescence intensity (test concentration not listed). actives 3.1% (n = 360,000). AID 624483;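 active means at least 3 SD above the mean of all compounds, about 16000 in these data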;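 further: 100 nL of 1 mM stock went into each well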
Sa RN4220 lethal: S. aureus RN4220 growth inhibition; OD600, 16 h; inhibition, % (no concentration beside the values); actives 0.33% (n = 330,000);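 active means z-score of -3 or lower and OD600 up to 0.18 on both plates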;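 further: plate controls were untreated cells for no effect and reference antibiotic for full effect; stock transfer was 100 nL into about 80 µL; one replicate is shown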
BJeLR lethal: BJeLR cell viability loss; inhibition, % (test concentration not listed); actives 0.17% (n = 300,000); BJeLR (HRASV12) viability, CellTiter-Glo ATP luminescence, 48 h; reference of the scale not given here;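 active means replicate mean above 50%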;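 further: 50 nL library stock added to about 25 µL; numbers are from one replicate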
Mtb hypoxia rep: Mtb hypoxia fluorescent reporter inhibition | M. tuberculosis hypoxia-regulated fluorescent reporter, fluorescence | fluorescence inhibition, % (no concentration beside the values) | actives 0.1% (n = 300,000) | AID 1159583;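 active means 35 to 45% if threefold the growth effect, above 45% if 1.5-fold the growth effect; inactive means the rest, general growth blockers included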;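 further: wells of about 50 µL received 100 nL stock; 0% = vehicle wells and 100% = reference inhibitor wells; whole bacteria with a GFP reporter of the hypoxia response; strong numbers were not always called active; many hits fall short of the cut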
ugtP null kill: compounds lethal to S. aureus RN4220 ugtP deletion mutant; actives 0.54% (n = 330,000); OD600 growth, 16 h; some inactives read as strong as hits; AID 1259309; growth inhibition, % (test concentration not listed);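 active means z-score under -3 and OD600 up to 0.15 on both plates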;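 further: plate controls were untreated wells for no effect and antibiotic for full effect; wells of about 80 µL received 100 nL stock; the first replicate is given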
Mtb hypoxia rep growth: recorded beside Mtb hypoxia rep, whose call it bears; growth inhibition, %; measured here: M. tuberculosis growth (absorbance);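 0% = vehicle and 100% = reference antibiotic; read after six days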
Numbers without * were called inactive.

`CN1C(=O)C(CC(=O)N2CCN(C(c3ccccc3)c3ccccc3)CC2)N(C)C1=O` (configuration not stated) gave PrP 5UTR inh 1, Autofluor counter 4265, Sa RN4220 lethal 1.9, BJeLR lethal -2, Mtb hypoxia rep 8, ugtP null kill 4 and Mtb hypoxia rep growth 6.
Screening COc1ccc(CNC(=S)Nc2ccccc2-c2ccccc2)cc1 returned PrP 5UTR inh -7, Autofluor counter 4451, Sa RN4220 lethal 1.6, BJeLR lethal -3, Mtb hypoxia rep -1, ugtP null kill 3 and Mtb hypoxia rep growth 5.
COc1ccc(C(=O)N2CCN(C)C(C)C2)cc1OC1CCN(C(C)=O)CC1 (configuration not stated) was read as PrP 5UTR inh -7, Autofluor counter 5989, Sa RN4220 lethal 4.1, BJeLR lethal -1, Mtb hypoxia rep 6, ugtP null kill 7 and Mtb hypoxia rep growth -19.
`Cc1cc(S(=O)(=O)NC2CCCC2)ccc1F` gave PrP 5UTR inh -14, Autofluor counter 2629, Sa RN4220 lethal 3.4, BJeLR lethal -2 and ugtP null kill 16.
Screening COc1cccc(N2CC(C(=O)NNC(=O)c3ccc(Cl)cc3)CC2=O)c1 (configuration not stated) returned PrP 5UTR inh -14, Autofluor counter 4254, Sa RN4220 lethal -1.3, BJeLR lethal 4, Mtb hypoxia rep 10, ugtP null kill 14 and Mtb hypoxia rep growth 1.
`CCOC(=O)c1c(C)c(-c2ccccc2)n(CC(=O)N2CCN(C)CC2)c1C` gave PrP 5UTR inh -11, Autofluor counter 5331, Sa RN4220 lethal -5.7, BJeLR lethal -3, Mtb hypoxia rep 11, ugtP null kill 1 and Mtb hypoxia rep growth 8.
`Cc1cc(S(=O)(=O)N(Cc2ccccn2)Cc2ccco2)ccc1-n1cnnn1` gave PrP 5UTR inh -17, Autofluor counter 6336, Sa RN4220 lethal 2.3, BJeLR lethal -1, Mtb hypoxia rep 3, ugtP null kill 9 and Mtb hypoxia rep growth 2.
`Cc1ccc(N(CC(=O)NN=Cc2cccc(Br)c2)S(C)(=O)=O)cc1` gave Sa RN4220 lethal 8.5, Mtb hypoxia rep 8, ugtP null kill -9 and Mtb hypoxia rep growth 2.
Screening Cc1ccccc1Cn1c(=O)n(-c2ccccc2)c(=O)c2ccc(C(=O)NCc3ccco3)cc21 returned PrP 5UTR inh -7, Autofluor counter 5934, Sa RN4220 lethal 5.5, BJeLR lethal 20 and ugtP null kill 1.
For COCC(=O)N(Cc1cc2cc(OC)ccc2[nH]c1=O)c1ccc(C)cc1 the results were PrP 5UTR inh -8, Autofluor counter 2276, Sa RN4220 lethal 4.1, BJeLR lethal 8 and ugtP null kill 5.
COC(=O)c1ccc(NC(=O)C2CC(=O)N(c3ccc(C)cc3)C2)cc1 (configuration not stated) was read as PrP 5UTR inh -28, Autofluor counter 3297, Sa RN4220 lethal -2.6 and ugtP null kill 12.
For O=C(NNC1=C(C(=O)C(F)(F)F)CCC1)c1ccccc1Cl the results were PrP 5UTR inh -5, Autofluor counter 3448, Sa RN4220 lethal -13, BJeLR lethal 0, Mtb hypoxia rep 4, ugtP null kill 83 and Mtb hypoxia rep growth 1.
COC(=O)Cc1c(O)ccn(Cc2cccc(C(F)(F)F)c2)c1=O was read as PrP 5UTR inh -19, Autofluor counter 3811, Sa RN4220 lethal 3.1, BJeLR lethal -4, Mtb hypoxia rep -1, ugtP null kill 12 and Mtb hypoxia rep growth -14.
Screening Cc1cc(C)cc(N(CC(=O)NCc2ccccc2)C(=O)CCC(=O)Nc2ccccn2)c1 returned PrP 5UTR inh -7, Autofluor counter 5593, Sa RN4220 lethal 0.0, BJeLR lethal -4, Mtb hypoxia rep 13, ugtP null kill -2 and Mtb hypoxia rep growth 0.
CCCn1c(SCC(=O)Nc2ccccc2OC)nnc1-c1ccco1 was read as PrP 5UTR inh -30, Autofluor counter 5505, Sa RN4220 lethal 1.7, BJeLR lethal 30, Mtb hypoxia rep 13, ugtP null kill 6 and Mtb hypoxia rep growth 2.
Screening COc1ccc(C2CC(c3ccc(C)cc3)Nc3ncnn32)cc1 (configuration not stated) returned PrP 5UTR inh -13, Autofluor counter 5596, Sa RN4220 lethal 3.3, BJeLR lethal -10 and ugtP null kill -4.
`CC(=O)NC(c1ccc(F)cc1)c1cccnc1` (configuration not stated) gave PrP 5UTR inh -18, Autofluor counter 9372, Sa RN4220 lethal 1.2, BJeLR lethal -3, Mtb hypoxia rep 0, ugtP null kill 2 and Mtb hypoxia rep growth -4.
Screening CCSc1nnc(-c2ccc(Cl)cc2)c2ccccc12 returned PrP 5UTR inh -8, Autofluor counter 6258, Sa RN4220 lethal 5.0, BJeLR lethal -1, Mtb hypoxia rep 9, ugtP null kill -5 and Mtb hypoxia rep growth 14.
`CS(=O)(=O)c1ccc(C(=O)Nc2ccc(-c3nc4ccccc4[nH]3)cc2)cc1` gave PrP 5UTR inh -16, Autofluor counter 4365, Sa RN4220 lethal -0.1, BJeLR lethal 3, Mtb hypoxia rep -3, ugtP null kill -6 and Mtb hypoxia rep growth -8.
COc1ccc(Br)cc1CN(C)CC(=O)Nc1cc([N+](=O)[O-])ccc1OC was read as PrP 5UTR inh -16, Autofluor counter 2559 and BJeLR lethal -4.

2 neighbouring records out of the list so far, for reference:
`CS(=O)(=O)c1ccc(C(=O)Nc2ccc(-c3nc4ccccc4[nH]3)cc2)cc1` gave PrP 5UTR inh -16, Autofluor counter 4365, Sa RN4220 lethal -0.1, BJeLR lethal 3, Mtb hypoxia rep -3, ugtP null kill -6 and Mtb hypoxia rep growth -8.
COc1ccc(Br)cc1CN(C)CC(=O)Nc1cc([N+](=O)[O-])ccc1OC was read as PrP 5UTR inh -16, Autofluor counter 2559 and BJeLR lethal -4.

The list goes on.
For COc1ccccc1CCC(=O)N(C)CC(=O)Nc1ccc(Cl)c(C(F)(F)F)c1 the results were PrP 5UTR inh -2, Autofluor counter 4107, Sa RN4220 lethal -5.5, BJeLR lethal 18, Mtb hypoxia rep -12, ugtP null kill -15 and Mtb hypoxia rep growth -6.
Screening CCCC1=NN2C(=N)/C(=C\c3ccc(OCCOc4ccc(NC(C)=O)cc4)c(OC)c3)C(=O)N=C2S1 returned PrP 5UTR inh -8, Autofluor counter 3815, Sa RN4220 lethal 0.3, BJeLR lethal 12, Mtb hypoxia rep 8, ugtP null kill 0 and Mtb hypoxia rep growth 5.
For CCCCOCC(O)Cn1c(C)nc2ccccc21 (configuration not stated) the results were PrP 5UTR inh -19, Autofluor counter 9982, Sa RN4220 lethal 4.5, BJeLR lethal -2, Mtb hypoxia rep 5, ugtP null kill -1 and Mtb hypoxia rep growth -2.
Screening CCCN=C1CC(C)(C)CC(=O)/C1=C(\O)CCC returned Sa RN4220 lethal 0.9, Mtb hypoxia rep 11, ugtP null kill 2 and Mtb hypoxia rep growth 2.
Screening COCCn1c(C(C)C)nc2sc3ccccc3c(=O)c2c1=O returned PrP 5UTR inh 4, Autofluor counter 19469*, Sa RN4220 lethal 2.8, BJeLR lethal -7, Mtb hypoxia rep 2, ugtP null kill 0 and Mtb hypoxia rep growth 9.
`CCOc1ccc(-n2c(C)nc3cc(C(=O)NCc4ccco4)ccc32)cc1` gave PrP 5UTR inh 4, Autofluor counter 2525, Sa RN4220 lethal -15, BJeLR lethal -7 and ugtP null kill 64.
For Cc1cc(C)c(NC(=O)CN(C)C(C)C(=O)N2CCc3ccccc32)c(C)c1 (configuration not stated) the results were PrP 5UTR inh -16, Autofluor counter 8893, Sa RN4220 lethal 0.9, Mtb hypoxia rep 5, ugtP null kill 1 and Mtb hypoxia rep growth -1.
COc1ccc(CCNc2nc(C)cc(C)c2C#N)cc1OC was read as PrP 5UTR inh -25, Autofluor counter 3975, Sa RN4220 lethal 3.2, BJeLR lethal 9, Mtb hypoxia rep 7, ugtP null kill -6 and Mtb hypoxia rep growth 5.
`CC(OC(=O)c1nsc(Cl)c1Cl)C(=O)NCCc1ccccc1` (configuration not stated) gave PrP 5UTR inh -16, Autofluor counter 5980, Sa RN4220 lethal 6.0, BJeLR lethal -4, Mtb hypoxia rep 9, ugtP null kill 7 and Mtb hypoxia rep growth 1.
For CC1=NN(c2ccccc2)C(=O)/C1=C/C=C/C=C/N(C)C the results were PrP 5UTR inh -23, Autofluor counter 4147, Sa RN4220 lethal -5.4, BJeLR lethal 12, Mtb hypoxia rep 63*, ugtP null kill -6 and Mtb hypoxia rep growth -1.4*.
For COc1ccc2[nH]cc(CCNC(=O)c3ccco3)c2c1 the results were PrP 5UTR inh -10, Autofluor counter 5788, Sa RN4220 lethal 3.3, Mtb hypoxia rep 1, ugtP null kill 4 and Mtb hypoxia rep growth 10.
Cc1cc(C)c(C2=NOC(O)(C(F)(F)F)C2)c(=O)[nH]1 (configuration not stated) was read as PrP 5UTR inh -2, Autofluor counter 2539, Sa RN4220 lethal -5.0, BJeLR lethal 13 and ugtP null kill 2.
C=CCC(O)(CC=C)CNC(=O)C1CCC(=O)N(CCCc2ccccc2)C1 (configuration not stated) was read as PrP 5UTR inh -17, Autofluor counter 4081, Sa RN4220 lethal 2.0, BJeLR lethal -5, Mtb hypoxia rep -3, ugtP null kill -2 and Mtb hypoxia rep growth 6.
Screening CC(=O)c1cccc(NC(=O)COC(=O)c2ccccc2C)c1 returned PrP 5UTR inh -45, Autofluor counter 3611, Sa RN4220 lethal 3.0, BJeLR lethal -5, Mtb hypoxia rep -1, ugtP null kill 10 and Mtb hypoxia rep growth 10.
`COc1ccc(OC)c(Nc2cc(C)nc3ccc(C)cc23)c1` gave PrP 5UTR inh -26, Autofluor counter 6043, Sa RN4220 lethal -1.5, BJeLR lethal 41, Mtb hypoxia rep 13, ugtP null kill 1 and Mtb hypoxia rep growth 3.
O=C1CCc2cc(S(=O)(=O)N3CCN(c4ccccc4)CC3)cc3c2N1CCC3 was read as PrP 5UTR inh -28, Autofluor counter 5046, Sa RN4220 lethal 5.2, BJeLR lethal 5, Mtb hypoxia rep 4, ugtP null kill 8 and Mtb hypoxia rep growth 8.
For COc1c(C)cc(C(=O)C2CCCN(C(=O)c3cc4nc(C)cc(C)n4n3)C2)cc1C (configuration not stated) the results were PrP 5UTR inh -16, Autofluor counter 4324, Sa RN4220 lethal 2.8, BJeLR lethal -5, Mtb hypoxia rep -3, ugtP null kill -2 and Mtb hypoxia rep growth -4.
Screening O=c1cc(-c2ccc(C3CCCCC3)cc2)[nH][nH]1 returned PrP 5UTR inh -44, Autofluor counter 5184, Sa RN4220 lethal 26, BJeLR lethal 10, Mtb hypoxia rep 9, ugtP null kill -7 and Mtb hypoxia rep growth 5.
For CN(C)c1ccc(N=Nc2ccccc2C(=O)OCC(=O)N2CCCC2)cc1 the results were PrP 5UTR inh -33, Autofluor counter 2437, Sa RN4220 lethal -0.9, BJeLR lethal -14, Mtb hypoxia rep 0, ugtP null kill -5 and Mtb hypoxia rep growth 6.
Screening Cc1ccc([N+](=O)[O-])cc1NC(=O)CN(C(=O)c1ccccc1Cl)C1CCCCC1 returned PrP 5UTR inh -1, Autofluor counter 10459, Sa RN4220 lethal -2.1, BJeLR lethal -13, Mtb hypoxia rep 10, ugtP null kill -8 and Mtb hypoxia rep growth 32.
`Cc1ccccc1Cn1c(=O)n(CCCC(=O)NCc2ccco2)c(=O)c2sccc21` gave PrP 5UTR inh -12, Autofluor counter 3128, Sa RN4220 lethal -0.6, BJeLR lethal 3, Mtb hypoxia rep 17, ugtP null kill 3 and Mtb hypoxia rep growth 7.
Screening COc1ccccc1-n1cnc2cc(NCc3ccccn3)ccc21 returned PrP 5UTR inh -39, Autofluor counter 22276*, Sa RN4220 lethal 2.1, BJeLR lethal 9, Mtb hypoxia rep 9, ugtP null kill 12 and Mtb hypoxia rep growth 1.
Screening COc1ccc(C(CC(=O)N2CCC3(CC2)OCCO3)NS(=O)(=O)c2ccc(OC)cc2)cc1 (configuration not stated) returned PrP 5UTR inh -12, Autofluor counter 2082, Sa RN4220 lethal -1.5, BJeLR lethal -15 and ugtP null kill 0.
CCN(C[C@H]1N[C@@](C)(C(=O)OC)[C@H]2C(=O)N(Cc3ccccc3)C(=O)[C@@H]12)C(=O)Nc1ccc(F)cc1 was read as PrP 5UTR inh -14, Autofluor counter 3677, Sa RN4220 lethal 4.3, Mtb hypoxia rep 1, ugtP null kill 0 and Mtb hypoxia rep growth 0.
`CC(C)CC(=O)Nc1ccc(S(=O)(=O)N2CC3CC(C2)c2cccc(=O)n2C3)cc1` (configuration not stated) gave PrP 5UTR inh -32, Sa RN4220 lethal 2.2, BJeLR lethal 9, Mtb hypoxia rep 10, ugtP null kill 9 and Mtb hypoxia rep growth -3.

An unsorted share of the library; any-hit rate near 4.1%.
